Source: PubChem (National Center for Advancing Translational Sciences (NCATS))
HSD17B inh – inhibitors of human HSD17B10 dehydrogenase. AID 893. hit rate 7.6% among 75,000. Potency, µM (doses to about 57.1 µM), for inactives: at the highest dose activity change, negative = inhibition, usual class: inhibitors. recombinant HSD17B10, NADH fluorescence kinetic; many of its hits are not listed in these tables; active means well fitted inhibition curve with a large enough effect; inconclusive means small, poorly fitted or top-dose-only effect; inactive means no such curve, though single readings can be large or run the other way;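 further: the protocol describes HADH2 (HSD17B10) and not the HSD17B4 of the title; nearly all actives have a fitted effect of over 70% in size; most hits overshoot -100% by far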
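20 nM HADH2, pH 9.0 Tris/Tween; cpd preinc 15 min RT; start w/ 1 mM NAD+ + 90 uM b-hydroxybutyryl-CoA; kinetic fluor ex360/em450 q30s x 4 min; delta last-first.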
Active calls of the source: *; ? = inconclusive; [ ] = another dose, or the depositor's remark. On the % scale 0 is the no-effect control and ±100 the full control effect; potency means the concentration at half of the fitted maximal effect.

structure,HSD17B inh
CC(CC(O)C1OC1(C)C)C1CCC2(C)C3=CCC4C(C)(C)C(=O)CCC4(C)C3CC[C@@]12C (some centres undefined),2.9%
CC(=O)Nc1nnc(C)s1,5.0%
CCCCCCCCCCCCCCCCCC(=O)NC[C@@H](COP(=O)([O-])OCC[N+](C)(C)C)OCC,6.9%
CCOc1ccccc1C1C(C#N)=C(SCC(=O)OC)NC(=O)C1C(=O)OC (centres undefined),4.7%
Cc1cnc(CNc2nc(-c3ccc(N(C)C)cc3)nc3ccccc23)cn1,?
C[C@](N)(COP(=O)(O)O)C(=O)O,2.4%
COC(=O)NC1CCS(=O)(=O)C1 (centres undefined),5.7%
COc1ccccc1NC(=O)C1=C(C)Nc2nc(CCCO)nn2C1c1ccc2c(c1)OCO2 (centres undefined),-12.9%
CN1CCN(C(=O)c2ccc(CN3CCOCC3)cc2)CC1,5.3%
COc1ccc(Cc2nnc(Nc3ccc(C)cc3C)[nH]c2=O)cc1,1.5%
O=C(Nc1ccccn1)NC12CC3CC(CC(C3)C1)C2,-2.5%
Cn1c(=O)c2c(SCc3cccc(C(F)(F)F)c3)nc(-c3ccco3)nc2n(C)c1=O,4.1%
N=c1n(-c2ccccc2)c(O)cc(=O)n1-c1ccccc1,-6.2%
CCOc1ccc(-n2c(Cc3cc(=O)[nH]c(=O)[nH]3)nnc2SCC)cc1,5.4%
O=C1CC(c2ccccc2)n2nc(NC(=O)c3ccccn3)nc2N1 (centres undefined),13.4%
CCCCN(CCCC)S(=O)(=O)c1ccc(OC)c2ncccc12,-3.8%
O=C(O)CSc1nnc(CNc2cccc(C(F)(F)F)c2)n1Cc1ccco1,-19.3%
Nc1ccccc1NC(=O)c1ccccc1N,31.6µM*
O=C(CSc1nnc(-c2cccc(S(=O)(=O)N3CCCCC3)c2)o1)c1ccc[nH]1,-26.5%
CCOc1ccccc1Nc1ncccc1C(=O)N1CCCC1,14.2%
Cc1c(NC(=O)C2(c3ccccc3)CCOCC2)c(=O)n(-c2ccccc2)n1C,9.8%
c1ccc(-c2noc(-c3cccc4ccccc34)n2)nc1,25.1µM*
COc1cccc2cc(C(=O)C3=C(O)C(=O)N(CCCN(C)C)C3c3ccncc3)oc12 (centres undefined),14.8%
O=C(O)CSSCC(=O)O,-3.7%[11.4 µM]
Cc1[nH]c(=O)[nH]c(=O)c1S(=O)(=O)NCC12CC3CC(CC(C3)C1)C2,5.7%
COc1cccc(-c2cc(C(=O)N3CCCCC3C)no2)c1 (centres undefined),-15.7%
COc1ccc(N(CC(=O)N2CCc3ccccc32)S(=O)(=O)c2c(C)n[nH]c2C)cc1,-12.4%
Fc1ccccc1C(c1nnnn1Cc1ccc2c(c1)OCO2)N1CCN(Cc2ccco2)CC1 (centres undefined),-6.1%
O[C@H](c1cc(C(F)(F)F)nc2c(C(F)(F)F)cccc12)[C@H]1CCCCN1,-9.7%[25.6 µM]
C[C@@H](CC(=O)O)[C@@H](N)C(=O)O,-5.2%
Cc1cccc(N(C)C(=O)CCS(=O)(=O)c2cccc3nonc23)c1,-10.9%
CCOC(=O)C1=C(O)C(=O)N(c2ccc(S(N)(=O)=O)cc2)C1c1ccc(OC)cc1 (centres undefined),?
CCOC(=O)NC(CC(=O)O)c1ccc(OC)cc1 (centres undefined),5.7%
C[C@@H](COc1ccccc1)N(CCCl)Cc1ccccc1,-1.1%[25.6 µM]
Cc1ccccc1N1C(=O)C(Cl)=C(N2CCCCCC2)C1=O,-11.2%
O=C(CN1C(=O)CC(c2ccco2)Sc2ccccc21)NCC1CCCO1 (centres undefined),-3.4%
COC(=O)C/C=C1\c2ccccc2C(OC)C1C (centres undefined),1.4%[11.4 µM]
CCCc1nnc(SCC(=O)N2CCOCC2)n1Cc1ccco1,-0.9%
COc1cccc(C=NC=Nc2cccc(OC)c2)c1,-6.1%
N[C@H](C(=O)O)C1[C@H](C(=O)O)[C@H]1C(=O)O (some centres undefined),-4.7%
COCCSc1nc2c(c(=O)[nH]c(=O)n2C)n1Cc1cccc(C)c1,6.3%
COC(=O)c1cc(Cl)c(N)cc1OC,3.8%
Cc1[nH]nc2c1C(c1ccc(Cl)cc1)C(C#N)=C(N)O2 (centres undefined),-10.2%
COCCNS(=O)(=O)c1ccc(-c2ccc(S(=O)(=O)NCCOC)cc2)cc1,4.8%
O=S1(=O)CCN2C(c3ccc4c(c3)CCCC4)=CSC2=N1,9.8%
CCOC(=O)c1ccc2c(c1)N(CC(=O)N1CCCC1)C(=O)C(C)(C)O2,1.9%
CCCC[C@@H]1C[C@H]1C(NC(=O)c1ccccc1)c1ccccc1C(F)(F)F (some centres undefined),-2.1%
CCOC(=O)c1c(NC(=O)CSc2nnnn2C)sc(C)c1-c1ccc(C)cc1,-2.8%
O=C(CSc1nnc(-c2ccccc2)o1)N1CCc2ccccc2C1,-5.3%
COc1ccc(NC(=O)c2ccc(N(C)S(C)(=O)=O)cc2)cc1OC,7.1%
COc1cccc(-c2nc(NCc3cccnc3)c3ccccc3n2)c1,9.9%
O=C(O)c1ccc(C(=O)c2ccccc2)c(C(=O)O)c1,3.8%[11.4 µM]
COc1ccc(N2CCN(C(=O)c3cc4c(-c5cccc(OC)c5)nn(C)c4s3)CC2)cc1,1.9%
CCc1ccccc1NC(=O)CN1CCC(NC(=O)COC)CC1,2.4%
Cc1cc(Cl)ccc1OCC(=O)NCCCN1CCOCC1,-5.5%
Cc1cc2ccccc2n1CCNC(=O)c1cccs1,-12.6%
CCOC(=O)N1CCN(C(=O)CSCC(=O)Nc2nc(-c3cccs3)cs2)CC1,-25.9%
CN(CCNC(=O)CCNC(=O)Cn1ccc2ccccc2c1=O)Cc1ccccc1,-2.7%
CC(=O)N=c1ncn(CC(COC(C)=O)OC(C)=O)c2nc[nH]c12 (centres undefined),1.4%
O=C(Nc1cccc(F)c1)NC1CCCCC1,1.2%

Part of the list above in order of heavy-atom count, descending:
structure,HSD17B inh
COc1ccc(N2CCN(C(=O)c3cc4c(-c5cccc(OC)c5)nn(C)c4s3)CC2)cc1,1.9%
CCOC(=O)N1CCN(C(=O)CSCC(=O)Nc2nc(-c3cccs3)cs2)CC1,-25.9%
COc1ccc(NC(=O)c2ccc(N(C)S(C)(=O)=O)cc2)cc1OC,7.1%
CCc1ccccc1NC(=O)CN1CCC(NC(=O)COC)CC1,2.4%
Cc1cc2ccccc2n1CCNC(=O)c1cccs1,-12.6%
O=C(Nc1cccc(F)c1)NC1CCCCC1,1.2%

(list continues)
structure,HSD17B inh
CC1(C)Cc2nc(N3CCOCC3)c(C#N)cc2CO1,31.6µM*
CCOC(=O)N1CCN(c2c(NCCc3ccc(OCC)c(OCC)c3)c(=O)c2=O)CC1,6.3%
CCOC(=O)CN1C(=O)C(O)(CC(=O)c2ccco2)c2ccccc21 (centres undefined),-3.0%
O=C(/C=C\c1ccc(O)cc1)c1ccc(O)cc1O,-12.7%
COc1ccccc1Nc1nc2ccccc2[nH]1,2.7%
Cc1cc(C)c(C#N)c(SC2CCCCC2=O)n1 (centres undefined),-2.0%
COc1ccc2c(c1)c(=O)oc1cc(OCC(=O)N3CCC(C)CC3)ccc12,10µM*
COCCn1c(SCC(=O)c2ccccc2)nc2c(c1=O)SC(C)C2 (centres undefined),-2.9%
O=C(NC1CC1)C1CCCN1S(=O)(=O)c1ccc2ccccc2c1 (centres undefined),7.1%
CNc1nc(SCc2ccccc2)nc(N2CCOCC2)n1,3.0%
O=P(c1cccs1)(c1cccs1)c1cccs1,1.8%
C/C(Cl)=C/Cn1c(SC(C)C)nc2c1c(=O)[nH]c(=O)n2C,-11.2%
CCOc1ccc(C(=O)Nc2nnc(C)s2)cc1OCC,-6.1%
Cc1ccc(S(=O)(=O)NCC(=O)N(CC(=O)NCC2CCCO2)C2CCCC2)cc1 (centres undefined),-6.0%
O=C(CN1C(=O)CCS(=O)(=O)c2ccccc21)NCc1ccccc1,1.9%
Cc1cc2c(c(=O)n1CCN(C)C)C(c1ccccc1Br)C(C#N)=C(N)O2 (centres undefined),7.8%
O=c1cnc2cnc(Oc3ccccc3)nc2n1Cc1ccc(F)cc1,0.1%
Cc1cc2nc(-c3ccco3)cc(C(F)(F)F)n2n1,2.5%
CCn1c2ccccc2c2cc(NC(=O)COC(=O)C3CCC(=O)N3)ccc21 (centres undefined),12.6µM*
O=c1cc(N2CCN(c3cccc(Cl)c3)CC2)[nH]c(=O)n1C1CCCCC1,-2.5%
CCOC(=O)C1CCCN(C(=O)CNS(=O)(=O)c2ccc(Br)s2)C1 (centres undefined),4.3%
Cn1c(N)c(C(=O)COC(=O)c2ccco2)c(=O)n(C)c1=O,-5.3%
CCOCc1nnc(NC(=O)c2cccs2)s1,-16.8%
CCSc1nc2c(c(=O)[nH]c(=O)n2C)n1Cc1ccc(Cl)cc1,-4.0%
COCCn1c(=S)[nH]c2cc(C(=O)N3CCN(c4ccccc4OC)CC3)ccc2c1=O,1.0%
O=C(CN1CCN(C(=O)c2ccco2)CC1)Nc1ccccc1-c1ccccc1,-1.0%
COC(=O)COc1ccc(S(=O)(=O)Nc2ccc(C(N)=O)cc2)cc1Cl,12.8%
Cc1nnc(Nc2ccc(C(=O)N3CCOCC3)cc2)c2ccccc12,22.3%
COC(=O)c1[nH]c2ccccc2c1NC(=O)CCN1CCSCC1,?
Cc1ccc(S(=O)(=O)N2CCCN(S(=O)(=O)c3ccc4c(c3)OCCO4)CC2)cc1,-4.9%
O=C1C=C[C@@H](O)[C@H]2[C@@H]3C(=O)N(C[C@@H]4CCCO4)C(=O)[C@@H]3CC[C@H]12,6.4%[11.4 µM]
COc1ccccc1S(=O)(=O)Cc1ccc(C(=O)N2CCN(c3ccc(C)cc3)C(C)C2)o1 (centres undefined),1.3%
O=C(NCC1CCCO1)c1ccc(S(=O)(=O)N2CCCCC2)cc1 (centres undefined),9.3%
CSc1ccccc1NC(=O)c1cccnc1,5.9%
COc1ccc(-c2cc(C(F)(F)F)nc(SCC(=O)Nc3cc(C)on3)n2)cc1OC,31.6µM*
CCOC(=O)C1CCN(C(=O)c2ccc(Cl)c(S(=O)(=O)N3CCOCC3)c2)CC1,5.6%

Given as labelled records: part of the list above
> COC(=O)COc1ccc(S(=O)(=O)Nc2ccc(C(N)=O)cc2)cc1Cl
  HSD17B inh = 12.8%
> Cc1nnc(Nc2ccc(C(=O)N3CCOCC3)cc2)c2ccccc12
  HSD17B inh = 22.3%
> COC(=O)c1[nH]c2ccccc2c1NC(=O)CCN1CCSCC1
  HSD17B inh = ?

(listing goes on)
structure,HSD17B inh
Cc1ccc2[nH]c3nc(CCCn4ccnc4-c4ccccc4)nnc3c2c1,0.9%[11.4 µM]
Cc1ccccc1NC(=O)CCN1CCN(Cc2ccccc2)CC1,3.7%
Cc1oc2ccc(OCc3ccc(F)cc3)cc2c1C(=O)O,6.9%
CCC(=O)Nc1ccccc1Oc1ccccc1,5.3%
Oc1cccc(C=NCc2ccccc2)c1O,?
C[C@@H](C(=O)Nc1ccc2ccccc2c1)[C@@H]1C[C@@]1(C)[C@@H](N)c1ccccc1,-1.6%
CCOC(=O)Cc1nnc(NC(=O)COc2ccc(C)cc2)s1,-23.8%
CCC(=O)N1CCc2cc(S(=O)(=O)CCC(=O)NCc3cccs3)ccc21,7.8%
CCOC(=O)N1CCN(C(=O)c2ccc3c(=O)n(Cc4ccc(Cl)cc4)c(=S)[nH]c3c2)CC1,-14.9%
Cc1ccc(C)c(OCC(O)CN2C(C)CCCC2C)c1 (centres undefined),-1.6%
CNC(=O)c1ccccc1,5.0%
COC(=O)[C@@]1(Cc2ccc(F)cc2)[C@@H]2C(=CC(=O)[C@H]2CC(=O)C(=O)N2CCCC2)CN1C(=O)c1ccccc1,-0.8%
CC1(C)CC(=O)C=C(N2CCN(C3=CC(=O)CC(C)(C)C3)CC2)C1,-2.0%
CCOC(=O)c1c(C)[nH]c(C)c1C(=O)CN1C(=O)NC(CC(C)C)C1=O (centres undefined),4.1%
O=C(NCCCN1CCOCC1)NC12CC3CC(CC(C3)C1)C2,0.4%
Cn1cccc1C(=O)OCC(=O)Nc1ccc2c(c1)CCC2,-1.8%
N#C/C=C1\n2c(nc3ccccc32)OC12CCCCC2,2.1%
CCOc1ccc(NC(=O)c2oc3ccccc3c2NC(=O)C2CC2)cc1,31.6µM*
COc1ccc(N2CCN(/C(=N\S(=O)(=O)c3ccccc3)Nc3nc(C)cc(C)n3)CC2)cc1,?
O=S(=O)(c1ccccc1)c1ccc(NCc2ccco2)cc1,30.2%[activator]
O=C1C2C3C=CC(C3)C2C(=O)N1CC1CCCO1 (centres undefined),10.6%
COc1ccc(COC(=O)N/N=C2/C[C@@H](O)[C@@H](O)[C@@H]3[C@@H]4C(=O)N(C5CCCCC5)C(=O)[C@H]4CC[C@@H]23)cc1,4.0%[11.4 µM]
COc1cccc2cc(C(=O)N3CCN(C/C=C/c4ccccc4)CC3)c(=O)oc12,?
CS(=O)(=O)N(CC(=O)NCc1ccc2c(c1)OCO2)c1ccccc1,-0.2%
Cc1cccc(CN2CCN(CC(=O)O)C2=O)c1,6.0%
COc1ncc2nc(CCc3ccccc3)c(=O)n(-c3ccccc3)c2n1,-2.9%

Only part of the results is shown (hit frequency here may not be typical).
